# KAT2A inh = qHTS Assay for Inhibitors of GCN5L2; Histone acetyltransferase KAT2A (Homo sapiens), Q92830; GCN5L2 HAT assay, ThioGlo1 CoA-SH fluorescence; Potency, µM (doses to about 58.9 µM), inactives show at the highest dose activity change, negative = inhibition, usual class: inhibitors; 390,000 tested, 0.21% active; active = well fitted inhibition curve with a large enough effect; inconclusive = small, poorly fitted or top-dose-only effect, or another doubt; inactive = no such curve, though single readings can be large or run the other way
# Target sequence (Q92830 whole entry, looked up): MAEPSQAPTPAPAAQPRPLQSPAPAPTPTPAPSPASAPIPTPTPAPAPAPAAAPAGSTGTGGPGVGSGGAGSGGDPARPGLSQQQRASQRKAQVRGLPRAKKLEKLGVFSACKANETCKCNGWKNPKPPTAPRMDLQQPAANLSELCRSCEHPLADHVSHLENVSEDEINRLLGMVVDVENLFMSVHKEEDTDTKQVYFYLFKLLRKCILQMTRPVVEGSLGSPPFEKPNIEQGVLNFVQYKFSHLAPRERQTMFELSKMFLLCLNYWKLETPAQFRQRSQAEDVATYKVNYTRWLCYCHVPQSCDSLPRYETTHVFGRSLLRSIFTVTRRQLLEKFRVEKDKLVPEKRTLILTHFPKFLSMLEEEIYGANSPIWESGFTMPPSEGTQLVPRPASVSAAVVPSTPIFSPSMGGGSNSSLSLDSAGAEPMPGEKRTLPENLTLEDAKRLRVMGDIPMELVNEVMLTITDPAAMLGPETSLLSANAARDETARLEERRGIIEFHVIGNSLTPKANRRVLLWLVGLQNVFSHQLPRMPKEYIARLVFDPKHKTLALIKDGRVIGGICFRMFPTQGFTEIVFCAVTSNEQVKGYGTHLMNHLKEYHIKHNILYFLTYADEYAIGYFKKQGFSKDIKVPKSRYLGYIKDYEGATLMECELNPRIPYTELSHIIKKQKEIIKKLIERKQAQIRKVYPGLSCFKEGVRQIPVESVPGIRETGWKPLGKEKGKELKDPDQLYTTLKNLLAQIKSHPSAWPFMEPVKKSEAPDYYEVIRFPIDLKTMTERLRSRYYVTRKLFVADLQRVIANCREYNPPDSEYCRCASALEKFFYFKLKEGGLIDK
#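 GCN5L2 (20 nM) in 50mM HEPES pH 7.5, 0.1mM EDTA, 0.01% Tween-20 preincubated 15 min with compounds at room temperature. Reaction started with H3(1-25) 75uM, acetyl-CoA 70uM, ThioGlo1 50uM; CoA-thiol fluorescence (Ex340/Em540) read at 0 and 20 min.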
# The depositor's hits bear a star; ? = inconclusive; & = joins results of further samples; [ ] = remark or other dose. % is scaled to controls: 0 for no effect and ±100 for the full control effect; potency is read from the fitted curve at half-maximal effect. Only part of the results is shown, and most or all hits are left out here.
SMILES,KAT2A inh
Cc1cccnc1NC(=O)c1ccc(S(=O)(=O)N2CCCCC2)cc1,0%
O=C(C1c2ccccc2C(=O)N2CCc3ccccc3C12)N1CCN(Cc2ccccc2)CC1 (centres undefined),1%
c1csc(-c2nnc(N3CCCCCC3)c3ccccc23)c1,-2%
COc1ccc(C(=O)NCC(=O)N2CCCCC2)cc1OC,-9%
C=C(C)CSc1nc(N)c2c3c(sc2n1)CCC3,-8%
COc1ccc(C2C(C(=O)NCc3cccnc3)c3ccccc3C(=O)N2C)cc1OC (centres undefined),-3%
O=C(NCCCN1CCOCC1)c1ccc2c(c1)N(Cc1c(F)cccc1Cl)C(=O)CS2,-3%
Cc1ccc2oc(=O)c3cnn(CC(=O)N4CCCc5ccccc54)c3c2c1,-11%
COC(=O)C(C)C1Sc2ccccc2NC1=O (centres undefined),-1%
COCCCNc1nc(NCc2ccc(C)cc2)c2cnn(C)c2n1,0%
Cc1ccc(S(=O)(=O)N2CCCC2C(=O)Nc2nccs2)cc1 (centres undefined),-8%
CC(C)NS(=O)(=O)c1ccc(OCC(=O)NCc2ccco2)cc1,-4%
CC(C)Cn1c(-c2ccccc2)nc2ccccc2c1=O,-2%
C=CCOC(=O)C1=C[C@@H](c2cn(C(C)=O)c3ccccc23)C[C@@H](OCCCCO)O1,-3%
O=C(Nc1ccc(Cl)cc1)C1CCC(=O)N1Cc1ccccc1Cl (centres undefined),?
Cc1cccc(N2CCN(S(=O)(=O)c3ccc(S(=O)(=O)N4CCCC4)cc3)CC2)c1C,-4%
COc1ccc(Cn2c(=O)sc3ccccc32)cc1OC,-6%
Cc1c(-c2ccc(Cl)cc2)[n+](=O)c2c(n1[O-])CCCC2,-3%
Cc1noc(C)c1CSCC(=O)N(CCC(C)C)c1c(N)n(Cc2ccccc2)c(=O)[nH]c1=O,-7%
O=CC(O)C(O)C(O)C(O)CO (centres undefined),-20%
O=C(CN1CCN(Cc2ccccc2Cl)CC1)N/N=C/C=C/c1ccccc1[N+](=O)[O-],-3%
CC1CC(C)CN(S(=O)(=O)c2ccc(NC(=O)C3COc4ccccc4O3)cc2)C1 (centres undefined),-9%
C(=N\N1CCN(c2ccccn2)CC1)/c1ccccn1,3%
O=S(=O)(c1ccc(-c2cc(C(F)(F)F)on2)s1)N1CCN(c2ccccc2F)CC1,2%
COCc1cc(=O)[nH]c(-c2ccc(C(F)(F)F)cc2)n1,4%
CN1CCN(NC(=O)/C=C/c2ccc(C(C)(C)C)cc2)CC1,-2%
CCOC(=O)Cc1csc(NC(=O)CCCC(=O)O)n1,-17%
O=C(c1ccc2c(c1)C(=O)N(Cc1ccco1)C2O)N1CCOCC1 (centres undefined),-3%
CCN1C(=O)[C@H]2[C@@H](c3ccc(-c4ccccc4)cc3)N[C@@](C)(C(=O)OC)[C@H]2C1=O,-12%
O=C(Nc1cc(Sc2nc3ccccc3s2)cc([N+](=O)[O-])c1)c1cccc(F)c1F,-1%
COc1cc(Sc2ccc(C)cc2)c(OC)cc1N,?
CC1(CC(=O)N/N=C/c2ccc(OCc3ccc(Cl)cc3Cl)cc2)OCCCO1,-16%
N#CC1=C(N)OC2=C(C(=O)CCC2)C1c1cccs1 (centres undefined),-1%
Cc1ccccc1Cn1c(=O)n(Cc2ccco2)c(=O)c2sc3ccccc3c21,-1%
CC1(C)SC2C(NC(=O)COc3ccccc3)C(=O)N2C1C(=O)O (centres undefined),-14%&14%&26%
COc1ccc2c(c1[N+](=O)[O-])CCC/C2=N/OC(=O)c1ccccc1SC,2%
Cc1ccccc1NC(=O)NNC(=O)c1ccc2ccccc2c1O,?
Cc1cccc(Nc2nc(N3CCN(C)CC3)nc(N)c2[N+](=O)[O-])c1,3%
Cc1nc2sc(C(c3ccc(Cl)cc3)N3CC(C)OC(C)C3)c(O)n2n1 (centres undefined),-5%
O=C(CN1C(=O)NC2(CCc3ccccc32)C1=O)NCc1ccccc1Cl (centres undefined),0%

# Some of these compounds in order of length of the SMILES, largest number first:
SMILES,KAT2A inh
Cc1ccccc1Cn1c(=O)n(Cc2ccco2)c(=O)c2sc3ccccc3c21,-1%
N#CC1=C(N)OC2=C(C(=O)CCC2)C1c1cccs1 (centres undefined),-1%
COc1cc(Sc2ccc(C)cc2)c(OC)cc1N,?

# Remaining list, next part.
SMILES,KAT2A inh
CCOC(=O)C1CCN(C(=O)c2cccc(Cl)c2)CC1,-1%
CCSc1ncc(Cl)c(C(=O)Nc2c(C(=O)Nc3ccccc3)oc3ccccc23)n1,-4%
COC(=O)c1cc(OC)c(OC)cc1NC(=S)N1CCN(Cc2ccccc2)CC1,3%
CCCCNC(=O)NNC(=O)COc1cccc(C)c1C,1%
C/C(=C(\C#N)C(=O)NCc1ccccc1)N(C)C,-3%
CC1CN(c2ncc(/C=N/NC(=O)c3ccccc3O)s2)CC(C)O1 (centres undefined),-15%
FC(F)(F)c1nnc2ccc(N3CCCCCC3)nn12,1%
O=C(NCc1cccc(Br)c1)C1CCN(C(=O)c2sccc2-n2cccc2)CC1,-2%
CCCN1C(=O)/C(=C\c2nc3ccccc3c(=O)[nH]2)c2ccccc21,-5%
Cc1ccc(C)c(NC(=O)c2cc(S(=O)(=O)N3CCCc4ccccc43)ccc2F)c1,-6%
CC(C)Cc1nnc(NC(=O)CCC(=O)N2CCCCC2)s1,1%
O=C(Nc1ccccc1N1CCOCC1)c1cccc(NS(=O)(=O)c2ccc(F)c(F)c2)c1,-9%
COc1cc(C)ccc1OCCOCCN(C)Cc1ccccc1,3%
COc1ccccc1N1CCN(S(=O)(=O)CCNC(=O)C2CC(=O)N(c3ccccc3)C2)CC1 (centres undefined),-2%&4%
COc1ccc(Cn2nnnc2C(c2cc(OC)ccc2OC)N2CCC(C(N)=O)CC2)cc1 (centres undefined),-6%
CCOC(=O)N1CCC(=NNc2nc(C)cc(=O)[nH]2)CC1,-4%
COc1ccc(Cl)cc1C(=O)O/N=C(\N)c1ccc(Cl)cc1,-6%
COC(=O)c1sc2ccccc2c1NC(=O)c1ccc(S(=O)(=O)N2CCC(C)CC2)cc1,-3%
CN1CCC(N(C)C(=O)/C(C#N)=C/c2ccc(OC(F)F)cc2)CC1,-9%
CCOCCCNC(=O)c1oc2ccc(S(=O)(=O)N3CCOCC3)cc2c1C,0%

# Reprinted from the results shown, 5 compounds:
SMILES,KAT2A inh
CCOC(=O)N1CCC(=NNc2nc(C)cc(=O)[nH]2)CC1,-4%
COc1ccc(Cl)cc1C(=O)O/N=C(\N)c1ccc(Cl)cc1,-6%
COC(=O)c1sc2ccccc2c1NC(=O)c1ccc(S(=O)(=O)N2CCC(C)CC2)cc1,-3%
CN1CCC(N(C)C(=O)/C(C#N)=C/c2ccc(OC(F)F)cc2)CC1,-9%
CCOCCCNC(=O)c1oc2ccc(S(=O)(=O)N3CCOCC3)cc2c1C,0%

# Following part:
SMILES,KAT2A inh
Cc1ccc2c(c1)-c1nc(-c3ccc4c(c3)NC(=O)CO4)cc(-c3ccccc3)c1CO2,1%
CCN(CC)C(C(=O)Nc1ccc2c(c1)OCO2)c1ccccc1 (centres undefined),2%
CCOC(=O)c1c(NC(=S)NC(=O)c2ccco2)sc2c1CCCC2,-12%
Cc1ccc(-c2ccc(/C=N/NC(=S)Nc3ccccc3)o2)cc1[N+](=O)[O-],-25%
Fc1ccc(Nc2ncnc3onc(-c4cccc(Cl)c4)c23)c(F)c1,-3%
COCC(C)n1c(SCc2nc3ccccc3c(=O)[nH]2)nc2ccccc2c1=O (centres undefined),-2%
Cc1ccc(OP(=O)(Nc2c(C)n(C)n(-c3ccccc3)c2=O)Oc2ccc(C)cc2)cc1,-5%
Cc1cc(NC(=O)COC(=O)CCC(=O)c2ccc(F)cc2)no1,0%
CC1(C)Cc2c(sc3c2c(=O)n(Cc2ccccc2)c2nncn32)CO1,-2%
CN1CCN(c2ccc([N+](=O)[O-])c(-n3nc(-c4ccccc4)c4ccccc4c3=O)c2)CC1,3%

# Single values from the list.
# KAT2A inh with `COCC(C)n1c(SCc2nc3ccccc3c(=O)[nH]2)nc2ccccc2c1=O` (centres undefined) is entered as -2%
# KAT2A inh with `Fc1ccc(Nc2ncnc3onc(-c4cccc(Cl)c4)c23)c(F)c1` is entered as -3%
# KAT2A inh with `CC1(C)Cc2c(sc3c2c(=O)n(Cc2ccccc2)c2nncn32)CO1` is entered as -2%
# KAT2A inh with `CCOC(=O)c1c(NC(=S)NC(=O)c2ccco2)sc2c1CCCC2` is entered as -12%
# KAT2A inh with `Cc1ccc(OP(=O)(Nc2c(C)n(C)n(-c3ccccc3)c2=O)Oc2ccc(C)cc2)cc1` is entered as -5%
# KAT2A inh with `Cc1ccc(-c2ccc(/C=N/NC(=S)Nc3ccccc3)o2)cc1[N+](=O)[O-]` is entered as -25%
# KAT2A inh with `CCN(CC)C(C(=O)Nc1ccc2c(c1)OCO2)c1ccccc1` (centres undefined) is entered as 2%

# More entries.
SMILES,KAT2A inh
Cc1cc(=O)oc2cc(OCC(=O)Nc3cccc(S(=O)(=O)N(C)C)c3)ccc12,-2%
O=C(CN1C(=O)c2ccccc2S1(=O)=O)NCCC1=CCCCC1,-2%
Cc1cc(C)cc(NC2=NC3(CCCCC3)N=C(N)N2)c1,-2%
CS(=O)(=O)N1CCC(C(=O)NCc2ccccc2)CC1,0%
C/C(=N\NC(=O)c1cccnc1)c1cc(C)oc1C,-3%
COc1ccc(NC(=O)C(C)N2c3cccc4cccc(c34)S2(=O)=O)cc1OC (centres undefined),-3%
Cn1cccc1C(=O)NNC(=O)COc1ccc(Br)cc1,-16%
CCOC(=O)N1CCN(Cc2nc3c(c(=O)[nH]c(=O)n3C)n2Cc2cc(C)ccc2C)CC1,-1%
COc1ccc2c(c1)C=CC1(O2)N(CCO)c2ccccc2C1(C)C (centres undefined),-1%
CCC1(C(=O)OC)NC(c2ccco2)C2C(=O)N(c3ccc(C)cc3)C(=O)C21 (centres undefined),-7%
COC(=O)C/C(N)=C(\C#N)C(=O)OC,-1%
Cc1nc(N2CCN(S(=O)(=O)c3ccc(F)cc3)CC2)c2c(-c3cccs3)csc2n1,-6%
COc1cc2c(cc1NC(=O)C(C)Sc1cccc[n+]1[O-])oc1ccccc12 (centres undefined),-4%
Cc1c(/C=N/NC(=O)CNc2ccccc2)c2ccccn2c1C(=O)c1ccccc1,-20%
CC(=O)c1cccc(NC2c3ccccc3C(=O)N2Cc2ccco2)c1 (centres undefined),-4%
O=C(CN1C(=O)C2C3C=CC(C3)C2C1=O)Nc1nncs1 (centres undefined),-4%
CC[C@@H](C)[C@@H]1CN([C@@H](C)CN2CCC[C@H]2CN2C(N)=NC[C@@H]2Cc2ccccc2)C(=N)N1CCc1ccc(Cl)c(Cl)c1,-2%
O=C(O)/C(=C\c1cccc(F)c1)c1ccc(S(=O)(=O)N2CCCC2)s1,-5%
CC(C)COP(=O)(OCC(C)C)C(O)c1ccc2c(c1)OCO2 (centres undefined),-2%
O=C1COc2ccc(C(=O)COC(=O)C3CC(O)CN3S(=O)(=O)c3ccc(Cl)cc3)cc2N1 (centres undefined),1%
CCC12CN(S(=O)(=O)c3ccc(C)cc3)CC(CC)(CN(S(=O)(=O)c3ccc(C)cc3)C1)C2=O,1%
CC(=O)c1cccc(NC(=O)CCc2c(C)nc3c(c(C)nn3-c3ccccc3)c2C)c1,-14%
O=C(CSc1nnc(-c2ccncc2)o1)c1cccc([N+](=O)[O-])c1,1%
N#C/C(=C\c1c(N2CCC(C(N)=O)CC2)nc2ccccn2c1=O)C(=O)NCc1ccco1,25%
CN(C)CCN(C(=O)c1ccc(S(=O)(=O)N2CCCC2)cc1)c1nc2ccc(Br)cc2s1,-19%
O=C(Nc1ccc2c(c1)CCC2)c1ccccc1Br,-5%
CCCn1nc2cc(C(=O)NCc3ccc(OC)cc3)ccc2c1OCC,-8%
CCOCCc1nnc(NC(=O)C(CC)c2ccccc2)s1 (centres undefined),-16%
COc1ccc2c(C)c(CCC(=O)NCCc3ccccc3)c(=O)oc2c1,-20%
Cc1cccnc1NC(=O)CCCNC(=O)c1ccc(Cl)cc1,-3%
Cc1ccc(C(=O)N2CCN(S(=O)(=O)N3CCCCCC3)CC2)cc1,1%
COc1ccc(OC)c(-c2cc(C(=O)NCCCn3ccnc3)no2)c1,-4%
CC1=NCCN1S(=O)(=O)c1cc(Cl)ccc1Cl,2%
Cc1ccc(S(=O)(=O)c2cn(C)c3cc(N4CCN(C)CC4)c(F)cc3c2=O)c(C)c1,-8%
On1nnc2ccc(C(F)(F)F)cc21,-10%
CCc1cc(=O)oc2cc(OCC(=O)O)c(Cl)cc12,-8%
CSc1nc2c(cnn2-c2ccccc2)c(=O)n1N,-1%
C=CC[C@@H](CC(=O)N(CCO)Cc1ccccc1)C(=O)NC[C@@H](OC(=O)[C@@H](CC=C)Cc1ccc(F)cc1)c1ccccc1,-12%
Nc1c(N(Cc2ccccc2)C(=O)COc2ccc(F)cc2)c(=O)[nH]c(=O)n1Cc1ccccc1,-23%
CCN(Cc1nc(-c2ccc(OC)c(OC)c2)no1)C(=O)c1ccc2c(c1)OCO2,-1%
CCCN1CCN(C(=O)C2CCCN(c3ncnc4c3nc3n4CCCCC3)C2)CC1 (centres undefined),-12%
Cc1n[nH]c(=O)nc1N/N=C/c1cccs1,-16%
OC1CCN(C(=S)NCCc2ccccc2)CC1,0%
CCc1ccc(NC(=O)Cc2cn(C)c3ccccc23)cc1,-1%[0.501 µM]
CCN(c1ccc(OC)cc1)S(=O)(=O)c1c(C(=O)N2CCCCCC2)c(C)n(C)c1C,-5%
CC(=O)c1ccc(S(=O)(=O)Nc2c(C)nn(C)c2C)cc1,-1%
CCN(CC)c1ccc(/C=N/N2CC(=O)NC2=S)cc1,-17%
CC1CCC(C(C)C)C(OC(=O)C[n+]2cc(-c3ccc(Cl)cc3)n3c2CCCCC3)C1 (centres undefined),-4%
COCC(=O)N1CCCC(CNS(=O)(=O)c2ccc(OC)cc2)C1 (centres undefined),-2%
COCCNC(=O)c1cnn2c(C(F)F)cc(-c3ccc(C)cc3)nc12,5%

# Screens from PubChem.
